ClpP mod = qHTS Assay for Activators of ClpP; ATP-dependent Clp protease proteolytic subunit (Bacillus subtilis (strain 168)), P80244; purified B. subtilis ClpP, FRET peptide cleavage, 20 min; Potency, µM (doses to about 57.5 µM), inactives show at the top dose activity change, negative = active; actives 1.9% (n = 340,000); AID 651965, 2013; active = well fitted falling curve with a large enough effect; inconclusive = small, poorly fitted or top-dose-only effect; inactive = no such curve, though single readings can be large or run the other way; note: the source files actives as falling curves though it sought activators and does not explain the sign; nearly all actives have a fitted effect of over 65% in size; many hits overshoot -100%
Target sequence (P80244 whole entry, looked up): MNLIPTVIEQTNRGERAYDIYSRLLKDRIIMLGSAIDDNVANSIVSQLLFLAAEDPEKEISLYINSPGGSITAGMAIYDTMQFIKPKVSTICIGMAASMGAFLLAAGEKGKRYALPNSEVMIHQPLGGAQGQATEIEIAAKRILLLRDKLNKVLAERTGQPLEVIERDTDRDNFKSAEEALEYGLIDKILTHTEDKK
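Buffer: 100 mM Tris/HCl pH8, 100 mM KCl, 0.05% low protease BSA, 2.5% glycerol, 0.01% Tween-20. ClpP 10 microg/mL final; 20 min RT; delta FRET normalized to ADEP and DMSO controls.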
The depositor's hits bear a star; ? = inconclusive. Potency is the fitted concentration of half-maximal effect. The list is partial; rates above refer to the full screens.

cpd	structure	ClpP mod
1	Cc1cccc(C(=O)N2CCc3cc(CNC(=O)c4cc5ccccc5[nH]4)ccc32)c1	?
2	COc1ccccc1OCCCn1c(-c2ccc(Cl)cc2)nc2ccccc2c1=O	-0.4%
3	COc1ccc(-c2coc3c2c(C)cc2oc(=O)c(C)c(C)c23)cc1	-25%
4	COc1ccc(OC)c2sc(N3CCN(C(=O)c4ccco4)CC3)nc12	0.7%
5	CCC(=O)Nc1ccc(-c2nc3ncccc3o2)cc1C	3.9%
6	O=C(NCc1ccc2c(c1)CCN2C(=O)c1ccncc1)c1ccccc1Cl	?
7	N#Cc1c(-c2ccccc2)cc(-c2ccccc2)nc1SCC(=O)Nc1ccc(Cl)cc1	0.0%
8	CCc1ccc(NC(=O)N2c3ccccc3Sc3ccccc32)cc1	-2.9%
9	c1ccc(Cc2nnc(SCc3nc(-c4cccs4)no3)n2-c2ccccc2)cc1	-13%
10	Cc1cc(C)c(NC(=O)C(C)n2nc(-c3ccc(C)c(C)c3)ccc2=O)c(C)c1 (stereo unspecified)	-5.7%
11	Cc1ccc(Cn2c(=O)n(-c3cccc(C(F)(F)F)c3)c(=O)c3c(C)c(C)sc32)c(C)c1	-1.1%
12	N#Cc1c(N)n(-c2cccc(Cl)c2)c2nc3ccccc3nc12	3.9%

Filtered by structure, those above containing a furan ring, fused or not.
cpd	structure	ClpP mod
3	COc1ccc(-c2coc3c2c(C)cc2oc(=O)c(C)c(C)c23)cc1	-25%
4	COc1ccc(OC)c2sc(N3CCN(C(=O)c4ccco4)CC3)nc12	0.7%

The listing continues.
cpd	structure	ClpP mod
13	CCn1c(SCC(=O)Nc2ccccc2C(=O)OC)nc2ccsc2c1=O	-0.6%
14	CC(NC(=O)c1ccc2c(c1)sc1nc(-c3ccc(F)cc3)cn12)C12CC3CC(CC(C3)C1)C2 (stereo unspecified)	-6.0%
15	CCCCCOc1ccc(C2c3c(oc4ccccc4c3=O)C(=O)N2c2nc(C)c(C)s2)cc1OCC (stereo unspecified)	1.3%
16	Cc1cccc(-c2noc(CN(C(=O)COc3ccc(C(C)C)cc3)C(C)C)n2)c1	0.2%
17	Cc1cn(C)c(CC(=O)N2CCN(c3cccc(Cl)c3)CC2)c1C(=O)O	1.5%
18	CCc1cnc2c(c1SCC(=O)Nc1ccc(OC)c(OC)c1)c(=O)n(C)c(=O)n2C	0.9%
19	O=C(Cn1nc(C(F)(F)F)c2c1CCCC2)Nc1ccc(F)c(Cl)c1	-3.0%
20	CCn1nnc2cc(C(=O)Nc3ccc(Cl)cc3C)ccc21	-1.4%
21	CCc1nnc(NC(=O)CSc2nccn2Cc2ccc(C)cc2)s1	1.0%
22	Cc1cc(C)c(NC(=O)Cn2c(=O)n(CCC(C)C)c(=O)c3cccnc32)c(C)c1	-15%
23	Cc1c(C(=O)NCc2ccccc2)sc2nc3n(c(=O)c12)CCCCC3	1.0%
24	O=C(CCC(=O)N1CC2CCCN2c2ccccc21)NCc1ccccc1F (stereo unspecified)	-8.1%
25	CCCCOc1ccc(C(=O)N2CCN(CCc3ccccn3)CC2)cc1	-4.0%
26	Cc1cccc(N(C)C(=O)C(Cc2ccccc2)NS(=O)(=O)c2cccc3nsnc23)c1 (stereo unspecified)	-1.2%
27	COc1ccccc1N1CCN(S(=O)(=O)c2c(C)sc3ncn(CC(=O)Nc4ccccc4F)c(=O)c23)CC1	-1.0%
28	Cc1nn(CCCC(=O)NCc2ccccc2)c(=O)c2c1sc1ccccc12	4.5%
29	O=C(CSc1nnc(-c2ccc(O)cc2)o1)c1ccc(Br)cc1	-3.4%
30	Cn1ccc2c(OCC(=O)NCc3ccccc3)cccc2c1=O	-23%
31	CN(Cc1ccccc1)c1ccc2cc(S(=O)(=O)N3CCCCC3)ccc2n1	?
32	O=C(Cc1cccs1)NC1CC(=O)N(c2cccc(F)c2)C1 (stereo unspecified)	0.3%
33	Cc1cc(C)n(-c2nc3ccccc3nc2Nc2cc(C(=O)O)ccc2C)n1	-0.1%
34	Cc1c(Cl)cccc1NC(=O)CSc1ncc2c(n1)-c1ccccc1N(C)S2(=O)=O	3.8%
35	CC(C)c1ccc2oc(-c3cc(NC(=O)c4cccs4)ccc3Cl)nc2c1	?
36	CN(Cc1ccccc1)c1ccc(-c2nc(-c3ccco3)no2)cc1[N+](=O)[O-]	1.7%

Some values from the list:
For ClpP mod, entry 10 has the entry -5.7%
For ClpP mod, entry 18 has the entry 0.9%
For ClpP mod, entry 13 has the entry -0.6%
For ClpP mod, entry 9 has the entry -13%
For ClpP mod, entry 12 has the entry 3.9%
For ClpP mod, entry 27 has the entry -1.0%

(more compounds)
cpd	structure	ClpP mod
37	Cc1nn(-c2nc(-c3ccc(F)cc3)cc(C(F)(F)F)n2)c(C)c1Br	1.5%
38	Cc1nc(-c2cccc(F)c2)sc1CCNC(=O)C(=O)Nc1ccc2c(c1)OCO2	-6.0%
39	CCOC(=O)c1cc2c(=O)n3ccccc3nc2n(CC2CCCO2)c1=NC(=O)c1ccc(OCC)cc1 (stereo unspecified)	3.7%
40	CCCN(CCC)S(=O)(=O)c1ccc2c(c1)N(CC(=O)NC(C)c1ccccc1)C(=O)CS2 (stereo unspecified)	2.4%
41	CCOc1ccc(CCNC(=O)c2cc3c(-c4ccc(OC)c(OC)c4)nn(C)c3s2)cc1OCC	4.2%
42	CC(=O)c1cccc(-n2c(=O)c3c4c(sc3n(CC(=O)c3ccccc3)c2=O)CN(C(C)=O)CC4)c1	-0.3%
43	CC(C)NC(=O)c1ccc2c(c1)N(Cc1cccc(Cl)c1)C(=O)c1ccccc1S2=O (stereo unspecified)	0.7%
44	COc1cccc(-c2cn3c(n2)sc2cc(C(=O)NC4CCCCCC4)ccc23)c1	4µM*
45	COc1cc(NC(=O)COCc2cc(-c3ccc(F)cc3)on2)cc(OC)c1OC	-2.1%
46	O=C(Nc1cccc(C(F)(F)F)c1)c1noc2c1CCc1ccccc1-2	-7.6%
47	COc1ccc(-c2cc(C(F)(F)F)nc(SCCC(=O)Nc3cccc(O)c3)n2)cc1	-30%
48	CC(=O)Nc1ccc(Nc2ncnc3sc4c(c23)CCCC4)cc1	0.3%
49	Cc1cccc(-c2noc(-c3ccc(NCc4ccccc4)c([N+](=O)[O-])c3)n2)c1	0.2%
50	Cc1cc(C)n(-c2nnc(Nc3ccc(C)c(Cl)c3)c3ccccc23)n1	-4.0%
51	Cc1cn2c(=O)cc(COc3ccccc3NC(=O)c3ccco3)nc2s1	-3.4%
52	O=C(c1ccc(Cl)cc1)n1nc(-c2ccco2)nc1NCc1cccs1	1.0%
53	CC(=O)N1CCc2cc(Br)cc(S(=O)(=O)N3CCN(c4cc(C)ccc4C)CC3)c21	-2.7%
54	COc1ccc(OC)c(NC(=O)CSc2nc(=O)n(CCN(C)C)c3c2CCC3)c1	1.3%
55	CCOC(=O)c1c(NC(=O)COc2cccc(C)c2C)sc2c1CCC(CC)C2 (stereo unspecified)	-6.9%
56	O=C(C[n+]1ccccc1Cl)c1ccccc1	-3.7%
57	CSc1ccccc1-c1nnc(NC(=O)c2ccc3c(c2)OCCO3)o1	4.3%
58	Cc1oc2ccc(O)c(CN3CCCC3)c2c1C(=O)Nc1ccccc1	-2.8%
59	Cc1cccc(N2CCN(C(=O)CCc3c(C)nc4ncnn4c3C)CC2)c1C	0.4%
60	COCCCNc1nc2c(S(=O)(=O)c3ccccc3)nnn2c2ccc(Cl)cc12	3.9%
61	COc1ccc(N2CCN(Cc3nnc(-c4ccc5c(c4)OCO5)o3)CC2)cc1	-10%
62	CC1=Nc2cc(C(=O)NCc3ccccc3Cl)ccc2Sc2c(C)ccc(C)c21	-0.8%
63	CCN(CC)C(=O)c1ccccc1NC(=O)c1cccc(S(=O)(=O)N2CCC(C)CC2)c1	1.3%
64	CCc1ccc(NC(=O)CCCc2nnc3n(CCCOC)c(=O)c4sccc4n23)cc1	-8.8%
65	CC(C)NC(=O)Cc1csc2nc(-c3ccccc3)cn12	-2.1%
66	Cc1cccc(Cn2c(-c3ccccc3)nc3ccccc32)c1	-27%
67	Cc1cn2c(=O)cc(COc3ccc(C(C)(C)C)cc3)nc2s1	-1.9%
68	Cc1ccc(Cn2c(CNC(=O)CCc3ccccc3)nc3cccnc32)cc1	1.1%
69	CCCNC(=O)CCc1nnc2ccc(N3CCN(c4cccc(OC)c4)CC3)nn12	-3.0%
70	Cc1cccc(Cn2c(C)c(C)c3cc(C(=O)NCc4ccco4)ccc32)c1	-20%
71	COc1ccc(NC(=O)c2ccco2)cc1NC(=O)COc1ccc(C)cc1C	-26%
72	CCCCCCOc1ccc(CC(=O)O)cc1	-3.5%

Results in sequence from above.
ClpP mod for nos. 62–68 → -0.8%, 1.3%, -8.8%, -2.1%, -27%, -1.9%, 1.1%

More records follow.
cpd	structure	ClpP mod
73	Cc1ccc(Cn2c(=O)c3cccnc3n(CC(=O)Nc3cc(Cl)ccc3C)c2=O)cc1	-12%
74	O=C(Cn1c(=O)n(Cc2ccco2)c(=O)c2cccnc21)Nc1ccccc1F	-1.8%
75	CC(C)c1ccc(N2C(=O)N(Cc3cccc([N+](=O)[O-])c3)c3ccccc3S2(=O)=O)cc1	0.9%
76	CCOC(=O)c1ccccc1NC(=O)c1nn(C)c2c1COc1ccccc1-2	-10%
77	CCOc1ccc(C2c3c(oc4ccc(C)cc4c3=O)C(=O)N2c2nc(C)c(C)s2)cc1OC (stereo unspecified)	-0.6%
78	COC(=O)c1ccccc1NC(=O)C1=CC(c2ccc3c(c2)OCO3)=NS(=O)(=O)N1C	0.4%
79	Cc1cc(C)cc(NC(=O)CSc2nnc(COc3ccccc3Cl)o2)c1	-2.0%
80	COC(=O)C(C)Sc1ncnc2c1c(-c1ccccc1)cn2-c1ccc(F)cc1 (stereo unspecified)	1.2%
81	COc1ccc(Cl)cc1NC(=O)c1cc2c(s1)-c1ccccc1OC2	-26%
82	COc1ccc(OCCn2c(C3CC(=O)N(c4ccc(F)cc4)C3)nc3ccccc32)cc1 (stereo unspecified)	0.9%
83	Cc1ccc(C(=O)Nc2nnc(S(=O)(=O)N3CCc4ccccc43)s2)cc1	1.3%
84	CCOc1ccc(Nc2ncnc3scc(-c4ccc(OC)cc4)c23)cc1	-7.7%

Two compounds picked at random from the list so far:
cpd	structure	ClpP mod
31	CN(Cc1ccccc1)c1ccc2cc(S(=O)(=O)N3CCCCC3)ccc2n1	?
69	CCCNC(=O)CCc1nnc2ccc(N3CCN(c4cccc(OC)c4)CC3)nn12	-3.0%

The listing continues:
cpd	structure	ClpP mod
85	COc1cc(NS(=O)(=O)c2ccc3[nH]c4c(c3c2)CCCCCC4)cc(OC)c1	-16%
86	Cn1c(=O)c2c(nc(N3CCOCC3)n2Cc2ccccc2F)n(C)c1=O	0.1%
87	CCOC(=O)c1cccc(NS(=O)(=O)c2cc(-c3cnc(C)o3)ccc2OC)c1	-5.3%
88	COc1ccc(OC)c(C2C(C(=O)N3CCCCC3)=C(C)Nc3nc4ccccc4n32)c1 (stereo unspecified)	?
89	Cn1c(=O)c2c(nc(SCC(=O)Nc3ccccc3F)n2Cc2ccccc2F)n(C)c1=O	-1.7%
90	Cc1nc2ccc(S(=O)(=O)NC(C(=O)N3CCN(c4cccc(Cl)c4)CC3)C(C)C)cc2s1 (stereo unspecified)	0.0%
91	CCN(CC)c1nn2c(=O)c(C(=O)NCc3ccc(F)cc3)cnc2s1	?
92	Cc1cc(C)n(-c2nc3ccccc3nc2Nc2cccc(C)c2C)n1	-2.4%
93	O=C(C[n+]1cc(Br)cc(Br)c1)c1ccc2c(c1)CCCC2	0.4%
94	Fc1ccc(Nc2nc(SCc3ccc(Cl)cc3)nc3ccccc23)cc1	35µM*
95	COc1ccc2c(CNCCc3ccco3)c(C(=O)O)n(Cc3ccc(C)cc3)c2c1	-17%
96	CC1(C)C(=O)N(CC(=O)Nc2ccc(Br)cc2F)c2ccccc21	-2.2%
97	Cc1ccc(CCNC(=O)c2c[nH]c3ccc(S(=O)(=O)Nc4cccc(C(F)(F)F)c4)cc3c2=O)cc1	-11%
98	O=C(Nc1cccc(Cl)c1)c1c(NC(=O)C(F)(F)F)sc2c1CCCC2	-0.6%
99	CCCc1cnc2c(c1SCc1cccc(F)c1)c(=O)n(C)c(=O)n2C	0.1%
100	Cc1oc2ncnc(N3CCCCC3)c2c1C(=O)NCC1CCN(Cc2ccc(F)cc2)CC1	1.6%
101	Nc1cc(=O)nc(SCC(=O)Nc2ccc(F)cc2)n1CCc1ccccc1	-1.5%
102	Cc1cc(C)cc(-n2c(-c3ccccc3)c(C)n3c4c(=O)n(C)c(=O)n(C)c4nc23)c1	-4.5%
103	CC(=O)Nc1nnc(SCc2cc(=O)c3cccc(Cl)c3[nH]2)s1	-0.2%
104	CC(=O)N1CCc2c(sc3c2c(=O)n(-c2ccccc2)c(=O)n3CC(=O)Nc2cc(C)cc(C)c2)C1	-1.3%
105	Cc1ccc(C)c(N2CCN(C(=O)c3cc4cc5ccc(C)cc5nc4s3)CC2)c1	1.1%
106	COc1cc(-c2noc(-c3ccc(N4CCCC4)c([N+](=O)[O-])c3)n2)cc(OC)c1OC	-0.2%
107	Cc1ccc(C)c(N2CCN(CCCNC(=O)c3ccc4nc(CCc5ccccc5)oc4c3)CC2)c1	-1.5%
108	CCOc1ccc(Sc2cc(C(=O)NCc3ccccc3Cl)c3ccccc3n2)cc1	-14%
109	Cc1ccc(-c2noc(CCCC(=O)NCc3ccco3)n2)cc1	-0.2%
110	Cc1ccc(S(=O)(=O)c2nc(-c3cccc(C)c3)oc2N2CCN(c3ccccc3)CC2)cc1	-12%
111	O=C(Cn1c(=O)n(Cc2nc(-c3ccccc3)no2)c(=O)c2cc3c(cc21)OCO3)Nc1ccccc1	18µM*
112	Cc1cc(C)c(NC(=O)c2cc(S(=O)(=O)N3CCCC3)cn2C)c(C)c1	1.1%

Bioassay records: PubChem, National Center for Advancing Translational Sciences (NCATS)
